Screens from PubChem.
HNF4A DNA FP – change in binding of human HNF4 alpha to DNA; activity change, % at 10 µM; AID 1224865; actives 0.3% (n = 360,000); P41235; HNF4a-FITC DNA binding, fluorescence polarization, 1 h; in the data active = activity change above about 30%, passing the limit was not always enough;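 also: controls were the assay level and a saturating level of protein; the project sought stronger binding though the title names inhibitors; some compounds called inactive have numbers as strong as hits; positive values seem to mean higher polarization but the record does not say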
Target sequence (P41235 whole entry, looked up): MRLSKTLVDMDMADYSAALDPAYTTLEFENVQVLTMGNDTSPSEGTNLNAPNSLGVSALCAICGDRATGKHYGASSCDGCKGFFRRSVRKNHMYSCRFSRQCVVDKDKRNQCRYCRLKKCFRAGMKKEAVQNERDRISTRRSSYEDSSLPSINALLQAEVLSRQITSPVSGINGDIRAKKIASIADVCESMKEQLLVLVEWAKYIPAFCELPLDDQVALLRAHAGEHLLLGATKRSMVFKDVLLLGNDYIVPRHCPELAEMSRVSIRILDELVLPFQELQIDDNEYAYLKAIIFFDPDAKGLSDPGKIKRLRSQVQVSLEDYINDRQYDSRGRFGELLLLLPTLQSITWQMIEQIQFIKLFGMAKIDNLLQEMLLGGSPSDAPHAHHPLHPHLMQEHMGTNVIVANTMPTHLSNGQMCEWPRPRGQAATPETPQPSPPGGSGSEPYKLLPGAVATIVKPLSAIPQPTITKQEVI
Calb FLC – C. albicans growth modulation with fluconazole | C. albicans CaCi-2 (fluconazole-resistant clinical isolate) + fluconazole, Alamar Blue growth, 48 h | growth inhibition, % (test concentration not listed) | actives 0.57% (n = 300,000);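 active = most replicates above 75%; inconclusive = exactly half above 75%; inactive = most below 75%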;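 also: all wells also contain fluconazole at 8 µg/ml as a sub-toxic cotreatment; 0% = median of DMSO wells and 100% = median of geldanamycin control wells; wells of about 8 µL received 7.5 nL stock; the first replicate is given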
ALR H2O2 inh – inhibitors of human sulfhydryl oxidase ALR; actives 3.8% (n = 290,000); purified ALR, DTT oxidation, H2O2 HRP-luminol luminescence; inhibition, % (test concentration not listed); P55789; AID 485317;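 active = mean and each replicate at 75% or more; inconclusive = only one of the two met; inactive = neither met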;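 also: stock transfer was 7.5 nL into about 7.5 µL; 0% = neutral wells and 100% = wells with inactivated enzyme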
Target sequence (P55789 whole entry, looked up): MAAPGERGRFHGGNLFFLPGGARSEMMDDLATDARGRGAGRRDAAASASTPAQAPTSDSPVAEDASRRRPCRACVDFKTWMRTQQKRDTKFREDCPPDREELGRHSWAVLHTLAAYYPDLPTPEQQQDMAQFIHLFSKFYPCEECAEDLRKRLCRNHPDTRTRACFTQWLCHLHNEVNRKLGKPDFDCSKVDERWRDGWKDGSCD
RanGTP-Imp inh – inhibitors of RanGTP-importin-beta interaction, primary screen, biochemical, FRET, CFP-Ran, YFP-importin-beta, homogeneous | inhibition, % (concentration not given with the values) | cell-free CFP-Ran/YFP-importin-beta FRET ratio | AID 2216 | actives 1.1% (n = 300,000);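 active = most replicates above 15%; inconclusive = exactly half above 15%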;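 also: 0% = DMSO wells and 100% = Ran loaded with GDP instead of GTP; wells of about 40 µL received 100 nL stock; the first replicate is given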
LANA-H2B inh – blocks KSHV LANA binding to histone H2A/H2B; Q9QR71; actives 0.6% (n = 320,000); inhibition, % (concentration not given with the values); cell-free LANA-H2A/H2B peptide, fluorescence polarization; AID 2629; in the data active = inhibition mostly above about 10%, no sharp cut-off; inactive = mostly below about 6.7%;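 also: stock transfer was 7.5 nL into about 10 µL; 0% = median of vehicle wells and 100% = median of positive control wells; one replicate is shown; the record names a cut of 25% in any replicate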
Beta2AR agonist – activates human beta-2 adrenergic receptor causing internalization; actives 0.43% (n = 340,000); AID 504454; response, % (no concentration beside the values); Am2.2-beta2AR cells, FAP receptor internalization, flow cytometry; reference of the scale not given here; P07550;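 active = response above a set limit, near 3 SD of response in nonfluorescent compounds, cut at about 42% in these data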;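 also: stock transfer was 100 nL into about 11 µL; a reference agonist was the positive control; negative values mostly stem from fluorescent compounds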
Target sequence (P07550 whole entry, looked up): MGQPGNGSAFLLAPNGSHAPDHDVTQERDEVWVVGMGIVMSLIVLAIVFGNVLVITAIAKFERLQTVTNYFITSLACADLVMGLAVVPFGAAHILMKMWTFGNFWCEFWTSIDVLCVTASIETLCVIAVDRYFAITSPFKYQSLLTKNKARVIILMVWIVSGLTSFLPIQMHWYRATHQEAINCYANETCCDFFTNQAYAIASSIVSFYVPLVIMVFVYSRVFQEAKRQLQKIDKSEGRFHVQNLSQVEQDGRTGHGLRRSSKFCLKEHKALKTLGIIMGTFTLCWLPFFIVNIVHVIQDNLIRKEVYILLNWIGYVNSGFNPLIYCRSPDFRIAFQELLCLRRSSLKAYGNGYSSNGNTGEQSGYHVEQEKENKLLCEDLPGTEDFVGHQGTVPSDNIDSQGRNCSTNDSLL
Vif TR-FRET – inhibitors of Vif binding to APOBEC3G peptide, primary screen, biochemical, TR-FRET, GST-Vif 1-94, biotin-A3G peptide, dose response retest (AID 1117319); TR-FRET GST-Vif / biotin-A3G peptide binding; higher % means a stronger effect; test concentration not given here; strong numbers were not always called active; one-dose inhibition, %; IC50 in µM for titrated hits; actives 0.57% (n = 260,000);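 active = above the screen mean plus three standard deviations and confirmed in dose response; inconclusive = results disagree or hit not tested in dose response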;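 also: Vif residues 1-94 fused to GST binding biotinylated APOBEC3G peptide 110-148; 0% = full assay without inhibitor and 100% = GST in place of GST-Vif; retest series ran down from 100 µM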
* marks the source's active call; other numbers are inactive results; & = joins results of further samples.

For O=C(COc1ccc(Cl)cc1)Nc1cc(S(=O)(=O)N2CCCCC2)ccc1N1CCCCC1 the results were HNF4A DNA FP -1.4, Calb FLC -9, RanGTP-Imp inh 8.3, Beta2AR agonist 20 and Vif TR-FRET -3%.
Screening O=C(NNc1ccc([N+](=O)[O-])cc1[N+](=O)[O-])C1C2CCCCC21 (centres undefined) returned HNF4A DNA FP -0.9, Calb FLC -12, ALR H2O2 inh 27, RanGTP-Imp inh 0.7, LANA-H2B inh 1.3, Beta2AR agonist -2 and Vif TR-FRET -4%.
Screening Cc1csc2nc3ccccc3c(=O)n12 returned HNF4A DNA FP 0.2, Calb FLC 3, ALR H2O2 inh 1, RanGTP-Imp inh 1.1, LANA-H2B inh 3.5, Beta2AR agonist -6 and Vif TR-FRET -5%.
`C=CCNC(=O)C1CC(=O)N(c2ccc(OCC(=O)NCc3ccccc3)cc2)C1` (centres undefined) gave HNF4A DNA FP 3.4, Calb FLC 5, ALR H2O2 inh -6, RanGTP-Imp inh -0.6, LANA-H2B inh 3.2, Beta2AR agonist -5 and Vif TR-FRET inconclusive.
For CC1(C)CC(=O)C(=Cc2cn(-c3ccccc3)nc2-c2ccc(Cl)cc2)C(=O)C1 the results were HNF4A DNA FP -2.0, Calb FLC 3, ALR H2O2 inh 5, RanGTP-Imp inh 8.1, LANA-H2B inh -0.8, Beta2AR agonist 19 and Vif TR-FRET 5%.
For CCOc1ccc(C(c2c(C)[nH][nH]c2=O)c2c(C)[nH][nH]c2=O)cc1OCC the results were HNF4A DNA FP -0.7, Calb FLC -24, RanGTP-Imp inh -2.9, LANA-H2B inh 8.2 and Beta2AR agonist -8.
For COc1ccc(C(=O)CSc2nnc(CNC(=O)c3ccccc3)o2)cc1 the results were HNF4A DNA FP -0.4, Calb FLC 7, ALR H2O2 inh 38, RanGTP-Imp inh 2.4, LANA-H2B inh -0.2, Beta2AR agonist -10 and Vif TR-FRET 26%.
Cc1c(Cc2ccccc2)c(=O)oc2c(C)c(OC(C)C(=O)N[C@@H](Cc3ccccc3)C(=O)O)ccc12 (some centres undefined) was read as HNF4A DNA FP -6.2, Calb FLC -7, ALR H2O2 inh 97*, RanGTP-Imp inh 3.8, LANA-H2B inh -0.8 and Beta2AR agonist -2.
For Cc1ccc(S(=O)(=O)N(CC(=O)NC2CC2)c2ccc(C)c(Cl)c2)cc1 the results were HNF4A DNA FP -6.5, ALR H2O2 inh -3, LANA-H2B inh -4.0 and Beta2AR agonist -5.
For Cc1ccccc1CN(C)C1CCN(C)CC1 the results were HNF4A DNA FP -2.5, Calb FLC -4, ALR H2O2 inh 0, RanGTP-Imp inh 5.5, LANA-H2B inh -0.8 and Beta2AR agonist 16.
Screening Cn1c(=O)c2c(SCc3cccnc3)nc(CC(C)(C)C)nc2n(C)c1=O returned HNF4A DNA FP 0.8, Calb FLC -6, RanGTP-Imp inh -6.7, LANA-H2B inh 7.8, Beta2AR agonist -6 and Vif TR-FRET 5%.
For O=C(O)CC(c1ccc(Cl)cc1)N1C(=O)CCC1=O (centres undefined) the results were HNF4A DNA FP 3.9, Calb FLC 5, ALR H2O2 inh -6, RanGTP-Imp inh -2.2, LANA-H2B inh 1.4, Beta2AR agonist 2 and Vif TR-FRET 4%.
COc1ccc2c(c1)C(=NO)c1cc(OC)ccc1-2 was read as HNF4A DNA FP -3.5, Calb FLC 1, ALR H2O2 inh 96*, RanGTP-Imp inh -1.2, LANA-H2B inh -3.0, Beta2AR agonist 20 and Vif TR-FRET -3%.
For CC(NC(=O)NC12CC3CC(CC(C3)C1)C2)c1ccc2c(c1)OCO2 (centres undefined) the results were HNF4A DNA FP 2.7, Calb FLC -52, ALR H2O2 inh -5, RanGTP-Imp inh -0.3, LANA-H2B inh -3.2, Beta2AR agonist 0 and Vif TR-FRET -1%.
O=C(CSc1ccc2nnc(-c3ccncc3)n2n1)Nc1ccc2c(c1)OCCO2 was read as HNF4A DNA FP 0.2, Calb FLC -4, ALR H2O2 inh 7, RanGTP-Imp inh 2.5, LANA-H2B inh -1.9, Beta2AR agonist -11 and Vif TR-FRET 4%.
`O=C(NNc1nc(-c2ccccc2)cs1)c1ccc(F)cc1` gave HNF4A DNA FP 3.6, Calb FLC -7, RanGTP-Imp inh -3.6, Beta2AR agonist -1 and Vif TR-FRET 21%.
For Cc1nn(C)c(=O)n1N(C)c1ncc(C(F)(F)F)cc1Cl the results were HNF4A DNA FP -2.1, Calb FLC -26, ALR H2O2 inh 2, RanGTP-Imp inh -0.1, LANA-H2B inh -1.7 and Beta2AR agonist 1.
`NS(=O)(=O)c1ccc(CCNc2ncnc3sccc23)cc1` gave HNF4A DNA FP 1.6, Calb FLC -4, RanGTP-Imp inh 3.3, LANA-H2B inh 1.5, Beta2AR agonist -1 and Vif TR-FRET 7%.
C=CCn1c(=NC(=O)C2CC2)sc2cc(NC(C)=O)ccc21 was read as HNF4A DNA FP 2.4, Calb FLC 9, ALR H2O2 inh 45, RanGTP-Imp inh 6.2, LANA-H2B inh -2.4, Beta2AR agonist -9 and Vif TR-FRET -1%.
Screening CC1CCN(S(=O)(=O)c2ccc3ccccc3c2)CC1 returned HNF4A DNA FP -0.4, Calb FLC -10, ALR H2O2 inh -13, RanGTP-Imp inh 0.8, LANA-H2B inh -4.7, Beta2AR agonist 8 and Vif TR-FRET -5%.
Screening CCc1ccc(C(C)NC(=O)Cn2cnc3c(=O)n(C)c(=O)n(C)c32)cc1 (centres undefined) returned HNF4A DNA FP -0.1, Calb FLC 4, ALR H2O2 inh -2, RanGTP-Imp inh 4.0, LANA-H2B inh -0.9, Beta2AR agonist 11 and Vif TR-FRET 9%.
Cc1cccc(/C=N/n2c(COc3ccccc3)n[nH]c2=S)c1 was read as HNF4A DNA FP 0.1, Calb FLC -24, ALR H2O2 inh 36, RanGTP-Imp inh 3.6, LANA-H2B inh -4.1 and Beta2AR agonist -16.
For O=C(CC1SC(=O)N(c2ccccc2)C1=O)Nc1ccc(Cl)cc1 (centres undefined) the results were HNF4A DNA FP 2.4, Calb FLC -5, ALR H2O2 inh 44, RanGTP-Imp inh 2.7, LANA-H2B inh -3.1 and Beta2AR agonist 3.
COc1cc(C2/C(=C(\O)c3ccc4c(c3)OCCO4)C(=O)C(=O)N2c2nnc(C)s2)cc(OC)c1OC (centres undefined) was read as HNF4A DNA FP 1.8, Calb FLC -1, ALR H2O2 inh 6, RanGTP-Imp inh 6.8, LANA-H2B inh 4.5 and Beta2AR agonist 5.
Screening CCOC(=O)CNC(=O)CN1C(=O)CC(c2ccco2)Sc2ccccc21 (centres undefined) returned HNF4A DNA FP 6.5, Calb FLC -3, ALR H2O2 inh 7, RanGTP-Imp inh 0.6, LANA-H2B inh -1.0, Beta2AR agonist -3 and Vif TR-FRET 7%.
CCn1cc(C(=O)NCc2ccc(OC)cc2)c(=O)c2ccc(C)nc21 was read as HNF4A DNA FP 1.6, Calb FLC 2, ALR H2O2 inh -7, RanGTP-Imp inh 1.4, LANA-H2B inh 0.7, Beta2AR agonist -15 and Vif TR-FRET -5%.
For c1csc(-c2nc(NCC3CCCO3)c3ccccc3n2)c1 (centres undefined) the results were HNF4A DNA FP -0.4, Calb FLC 20, RanGTP-Imp inh 1.6, LANA-H2B inh -5.3, Beta2AR agonist -15 and Vif TR-FRET 6%.
`CC(C)CCN1CCN=C1N(C)C` gave HNF4A DNA FP -0.3, ALR H2O2 inh 8, LANA-H2B inh 2.4 and Beta2AR agonist -1.
`Cc1ccc(S(=O)(=O)N2C(=O)c3cccc4cccc2c34)cc1` gave HNF4A DNA FP -3.4, Calb FLC 33, ALR H2O2 inh -19, RanGTP-Imp inh inconclusive, LANA-H2B inh -2.1, Beta2AR agonist 23 and Vif TR-FRET 1%.
Cc1ccc(C(O)(C(=O)NNc2ccc3ccccc3n2)c2ccc(C)cc2)cc1 was read as HNF4A DNA FP -0.9&-1.8, Calb FLC 1&2, ALR H2O2 inh -4&1, RanGTP-Imp inh 2.2&3.0, LANA-H2B inh 0.5&1.3, Beta2AR agonist -8&-1 and Vif TR-FRET 14%.

Fetched one by one from above (3):
`CC(C)CCN1CCN=C1N(C)C` gave HNF4A DNA FP -0.3, ALR H2O2 inh 8, LANA-H2B inh 2.4 and Beta2AR agonist -1.
For c1csc(-c2nc(NCC3CCCO3)c3ccccc3n2)c1 (centres undefined) the results were HNF4A DNA FP -0.4, Calb FLC 20, RanGTP-Imp inh 1.6, LANA-H2B inh -5.3, Beta2AR agonist -15 and Vif TR-FRET 6%.
Cc1ccc(C(O)(C(=O)NNc2ccc3ccccc3n2)c2ccc(C)cc2)cc1 was read as HNF4A DNA FP -0.9&-1.8, Calb FLC 1&2, ALR H2O2 inh -4&1, RanGTP-Imp inh 2.2&3.0, LANA-H2B inh 0.5&1.3, Beta2AR agonist -8&-1 and Vif TR-FRET 14%.

Continued.
CCOC(=O)C1CCCN(CCC(=O)Nc2cccc(C)c2)C1 (centres undefined) was read as HNF4A DNA FP -0.5, Calb FLC 1, ALR H2O2 inh -8, RanGTP-Imp inh 3.6, LANA-H2B inh 2.5 and Beta2AR agonist 0.
Oc1ccc(Cl)cc1CNCc1ccc(Cl)nc1 was read as HNF4A DNA FP 2.6, ALR H2O2 inh 12, LANA-H2B inh 1.8 and Beta2AR agonist -5.
For COC(=O)c1c(C(=O)OC)c(-c2ccccc2)n2c1CCC2 the results were HNF4A DNA FP -2.6, Calb FLC 7, ALR H2O2 inh -1, RanGTP-Imp inh -3.2, LANA-H2B inh 1.5, Beta2AR agonist 13 and Vif TR-FRET 27%.
CC(=O)/C(N)=N/Nc1cccc(Cl)c1 was read as HNF4A DNA FP 12, Calb FLC -5, ALR H2O2 inh 99*, RanGTP-Imp inh inconclusive, LANA-H2B inh 1.4 and Beta2AR agonist 16.
COc1ccc(Cl)cc1NC(=S)N(Cc1ccc(C(=O)O)cc1)Cc1ccc(OC)c(OC)c1 was read as HNF4A DNA FP -1.7, Calb FLC 7, ALR H2O2 inh 31, RanGTP-Imp inh -6.8, LANA-H2B inh 4.8, Beta2AR agonist 4 and Vif TR-FRET -4%.
Screening Cc1onc(-c2ccccc2)c1C(=O)N/N=C/c1ccc(Br)cc1 returned HNF4A DNA FP 0.2, Calb FLC 6, ALR H2O2 inh 1, RanGTP-Imp inh 3.6, LANA-H2B inh -0.2, Beta2AR agonist 2 and Vif TR-FRET -5%.
For Fc1cccc2sc(Nc3nnc(-c4ccccc4)o3)nc12 the results were HNF4A DNA FP -5.2, Calb FLC -1, ALR H2O2 inh inconclusive, RanGTP-Imp inh -2.5, LANA-H2B inh 0.5, Beta2AR agonist 8 and Vif TR-FRET 9%.
Cc1cccc(C(=O)N/C(=C\c2ccco2)C(=O)N2CCCC2)c1 was read as HNF4A DNA FP -2.0, Calb FLC 2, ALR H2O2 inh 95*, RanGTP-Imp inh 3.8, LANA-H2B inh 0.8 and Beta2AR agonist 1.
For COCCOC(=O)c1c(C)oc2ccc(O)c(CN3CCC(C)CC3)c12 the results were HNF4A DNA FP 2.5, Calb FLC 2, ALR H2O2 inh 17, RanGTP-Imp inh 6.4, LANA-H2B inh -4.7, Beta2AR agonist -3 and Vif TR-FRET 19%.
COc1ccc(C2CC(=O)n3nc(C45CC6CC(CC(C6)C4)C5)nc3S2)cc1OC (centres undefined) was read as HNF4A DNA FP -0.5, Calb FLC 8, ALR H2O2 inh 11, RanGTP-Imp inh 3.3, LANA-H2B inh -3.8, Beta2AR agonist -4 and Vif TR-FRET 10%.
`CC(C)(CNS(=O)(=O)c1ccc2ccccc2c1)N1CCOCC1` gave HNF4A DNA FP 4.6, ALR H2O2 inh 6, LANA-H2B inh 4.0 and Beta2AR agonist 1.

Rows are unselected. Share with any hit: about 6.3%.
